# CtBP-E1A inh: CtBP/E1A binding inhibition; AlphaScreen GST-E1A/His-CtBP binding, 1536-well; hits give low values; control for the full effect not named in the record; activity change, % (test concentration not listed); 340,000 compounds, 0.49% hits; in the data active means activity change below about -65%; inconclusive means about -30% to -65%; inactive means above about -30%; also: % is scaled to controls: 0 for no effect and ±100 for the full control effect
#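 In 5 uL wells, 23 nL compound meets equimolar GST-E1A and His-CtBP (5X stock 125 nM each) for 2 h, 37 °C. Beads (5X, 50 ug/mL) then 1 h, 37 °C, dark.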
# Six1-Eya2 blk: inhibitors of human Six1/Eya2 interaction | AlphaScreen GST-Six1/His-Eya2 binding, biochemical; hits give low values; control for the full effect not named in the record | activity change, % (concentration not given with the values) | 360,000 compounds, 0.56% hits | AID 651725; in the data active = activity change below about -65%; inconclusive = about -30% to -65%; inactive = above about -30%; also: % is scaled to controls: 0 for no effect and ±100 for the full control effect
#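 GST-Six1 + His-Eya2 (5X stock: 250/500 nM); Tris pH 8.0, 300 mM NaCl, 0.05% BSA, 0.02% Tween 20; GSH donor/Ni acceptor beads; 1 h 37 °C dark; AlphaScreen readout.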
# PINK1 modulator: changes PINK1 expression. Potency, µM (highest dose often 76.6 µM), for the others: at the top dose activation (PINK1 increase), hits mostly activators. PINK1 immunofluorescence, high-content cytometry, 24 h. AID 624263. 410,000 compounds, 0.2% hits; active = well fitted activation curve with a large enough effect; inconclusive = small, poorly fitted or top-dose-only effect; inactive = flat fitted curve, though single readings scatter; cell line not stated here;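 also: potency is read from the fitted curve at half-maximal effect; % of control where 0% means no effect; nearly all actives have a fitted effect of over 65% in size; a mitochondrial uncoupler was the plate control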
#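 Stable cell line, 250 cells/well, 12 h attachment; compounds pinned at 5 concentrations, 24 h; CCCP control. Fixed with nuclear dye, primary antibodies 12 h at 10 degrees C, secondary plus cell stain; laser-scanning cytometer read.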
# TRPML1 agonist: human mucolipin-1 channel agonism; TRPML1-expressing cells, Ca2+ dye fluorescence, FDSS; host cell line not named in the record; reference of the full effect not given here; AID 624414; activation, % (test concentration not listed); 410,000 compounds, 0.12% hits; Q9GZU1; in the data active = activation above about 50%; inconclusive = about 30% to 50%; inactive = below about 30%; also: 0% is about no effect; the text of the record puts the active cut at 80%
# Target sequence (Q9GZU1 whole entry, looked up): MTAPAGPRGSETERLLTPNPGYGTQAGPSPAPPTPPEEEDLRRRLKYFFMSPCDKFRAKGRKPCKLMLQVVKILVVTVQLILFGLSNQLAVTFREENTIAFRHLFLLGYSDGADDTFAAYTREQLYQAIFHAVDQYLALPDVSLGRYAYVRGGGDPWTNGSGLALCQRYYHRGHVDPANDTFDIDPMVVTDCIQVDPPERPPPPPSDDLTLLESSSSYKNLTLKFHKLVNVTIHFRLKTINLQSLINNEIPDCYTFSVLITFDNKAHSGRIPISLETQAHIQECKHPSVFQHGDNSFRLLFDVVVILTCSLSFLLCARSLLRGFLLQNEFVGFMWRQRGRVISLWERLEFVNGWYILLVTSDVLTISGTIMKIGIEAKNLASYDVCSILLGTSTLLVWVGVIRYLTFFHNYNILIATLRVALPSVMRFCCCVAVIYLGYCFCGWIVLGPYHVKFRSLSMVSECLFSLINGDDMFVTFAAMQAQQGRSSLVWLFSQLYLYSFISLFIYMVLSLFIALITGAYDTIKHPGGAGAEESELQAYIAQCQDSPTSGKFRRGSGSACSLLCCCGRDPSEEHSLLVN
#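 Kinetic FDSS Ca2+ read in Tet-induced TRPML1-DL cells (ABD Ca8 dye plus quencher, 45-90 min RT loading): baseline, then compound, then 110 s agonist window; EC80 agonist 54-4 at 4uM final added afterwards for a 110 s antagonist window.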
# D2 potentiator: potentiates the human D2 dopamine receptor allosterically. P14416. DiscoveRx D2 beta-arrestin cells, luminescence, 90 min; 100% = 57 uM dopamine signal. potentiation, % (concentration not given with the values). 360,000 compounds, 0.23% hits. AID 624464; active = potentiation of 50% or more; inconclusive = 30% to 50%; inactive = 30% or less;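 also: tested on top of an EC20 dose of dopamine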
# Target sequence (P14416 whole entry, looked up): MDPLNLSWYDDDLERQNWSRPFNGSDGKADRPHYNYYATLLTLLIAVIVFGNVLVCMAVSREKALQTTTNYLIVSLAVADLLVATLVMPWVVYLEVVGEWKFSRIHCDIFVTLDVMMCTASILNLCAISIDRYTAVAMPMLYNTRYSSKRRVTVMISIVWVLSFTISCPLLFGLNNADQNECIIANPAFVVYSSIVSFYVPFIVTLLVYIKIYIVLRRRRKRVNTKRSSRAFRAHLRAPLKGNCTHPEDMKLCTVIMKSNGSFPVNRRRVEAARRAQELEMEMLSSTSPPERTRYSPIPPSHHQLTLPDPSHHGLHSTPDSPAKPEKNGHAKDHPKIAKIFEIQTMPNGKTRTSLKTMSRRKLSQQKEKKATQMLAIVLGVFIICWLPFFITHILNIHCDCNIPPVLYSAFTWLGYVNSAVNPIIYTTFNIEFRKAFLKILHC
#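 PathHunter beta-arrestin assay in DiscoveRx D2 cells. Compounds were added with an EC20 of dopamine (50 nM final) for 90 min at 37 deg C. Luminescence was read 1 h after detection reagent, with 57 uM dopamine as the EC100 control.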
# D2 ag: human D2 receptor agonism in beta-arrestin assay; P14416; activation, % (no concentration beside the values); 360,000 compounds, 0.084% hits; DiscoveRx PathHunter D2 beta-arrestin, luminescence, 90 min; 100% = 57 uM dopamine signal; in the data active = activation above about 40%; inconclusive = about 15% to 40%; inactive = below about 15%; also: compound concentration not given in the record; the text of the record calls up to 30% inactive
#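 Agonist mode: compounds alone added to overnight-plated D2 PathHunter cells for 90 min at 37 C, with 57 uM final dopamine (EC100) defining full response. Beta-arrestin recruitment detected by chemiluminescent reagent, read after 1 h at ambient temperature.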
# * hit, by the source's call; ? = inconclusive; . = not tested or not shown; & = joins results of further samples; [ ] = dose if it differs, or a comment. An unsorted share of the library; any-hit rate near 1.3%.
SMILES,CtBP-E1A inh,Six1-Eya2 blk,PINK1 modulator,TRPML1 agonist,D2 potentiator,D2 ag
Cc1oc(-c2ccccc2F)nc1CS(=O)CC(=O)NC1CCCCC1 (stereo unspecified),0,3,1.1%,-0.5,-9,-4.3
Cc1nc(-c2cccc3ccccc23)ccc1C(=O)O,-10,11,0.7%,-0.4,-1,0.0
Cc1cc2oc3c(c(=O)c2cc1C)C(c1cccc(Br)c1)N(Cc1ccco1)C3=O (stereo unspecified),2,-5,7.1%,2.1,-6,-6.7
O=C(C1=NN[C@@H]2C(=O)N(c3ccccc3C(F)(F)F)C(=O)[C@H]12)c1ccc2ccccc2n1,-13,1,11%,0.0,-44,-13
CC(C)OCC(O)CN1CCN(C(c2ccccc2)c2ccccc2)CC1 (stereo unspecified),.,11,1.2%,0.0,-13,-5.3
Cc1cc(C)nc(N2CCC(C(=O)NNC(=O)c3ccc(Cl)cc3)CC2)n1,.,3,3.6%,-0.3,-10,-3.8
Cc1ccc(C)c(NC(=O)CN(C)C(=O)C2CCCC2)c1,.,28,-0.7%,0.3,-1,-0.7
C=CCNC(=O)c1ccccc1NC(=O)Nc1ccccc1,-1,-2,-0.6%[38.3 µM],-0.2,-1,-0.2
COC(=O)c1ccc(C)c(N(CCO)CCO)c1,5,7,4.1%[38.3 µM],2.2,9,0.9
Cc1ccc(CNC(=O)CCS(=O)(=O)c2ccc3c(c2)CC(C)N3C(=O)C2CC2)cc1 (stereo unspecified),3,-2,4.1%&9.4%,-0.8&-0.9,8,-2.6

# 2 entries from above, tab-delimited.
compound	CtBP-E1A inh	Six1-Eya2 blk	PINK1 modulator	TRPML1 agonist	D2 potentiator	D2 ag
Cc1oc(-c2ccccc2F)nc1CS(=O)CC(=O)NC1CCCCC1 (stereo unspecified)	0	3	1.1%	-0.5	-9	-4.3
CC(C)OCC(O)CN1CCN(C(c2ccccc2)c2ccccc2)CC1 (stereo unspecified)	.	11	1.2%	0.0	-13	-5.3

# (further entries)
SMILES,CtBP-E1A inh,Six1-Eya2 blk,PINK1 modulator,TRPML1 agonist,D2 potentiator,D2 ag
Cc1cc2sc3ccc(C#CC4(O)CCCCC4)cc3c(=O)c2cc1C,4,8,0.0%,0.4,-3,-1.3
NS(=O)(=O)c1ccc(NCc2cnc3ccccc3n2)cc1,0,-14,1.2%,-1.0,0,-5.3
Nc1nnc(-c2ccco2)s1,10,-3,.,-0.1,-21,-2.5
Cc1cccc2cc(C#N)c(NCCNS(=O)(=O)c3ccccc3)nc12,2,5,0.6%,-0.5,1,-6.2
CCOc1cc(NC(=S)NC)c(OCC)cc1NC(=O)c1cccs1,2,-2,0.3%,.,-7,-2.9
COc1ccc(C(=O)Nc2ccc3cn[nH]c3c2)c(OC)c1,-10,0,0.1%,0.0,0,0.9
CC1C(=O)N(Cc2cn(CC3CCCCC3)nn2)CCS(=O)(=O)N1Cc1ccc(-c2cccc(CO)c2)cc1 (stereo unspecified),5,1,0.4%,0.1,2,-8.6
CC1CCCC(C)N1C(=O)COC(=O)c1cccs1 (stereo unspecified),1,1,0.9%,0.4,0,-0.3
CN1C(=O)CC(C(=O)O)SC1=Nc1ccc(F)cc1 (stereo unspecified),8,4,.,-0.1,11,2.9
CCOC(=O)/C=C/[C@H]1CCc2cccc(Cl)c2O1,-15,28,5.1%,2.3,-7,2.0
Fc1ccc(-n2c(Cc3cccs3)n[nH]c2=S)cc1Cl,4,0,-0.9%,1.0,-5,-1.3
CCCCNC(=O)CCC(=O)Nc1ccc2nc(N3CCC(C)CC3)cc(C)c2c1,.,8,0.6%,2.2,-14,2.8
COC(=O)c1ccccc1NC(=O)CSc1nc(N)cc(N)n1,-7,6,-1.0%,-0.3,2,1.6
O=C(OC(C(=O)NCc1cccs1)c1ccccc1F)c1ccco1 (stereo unspecified),-1,4,0.3%,1.9,-15,-0.9
CC(C)(C)OC(=O)N1CCC(Cc2cc(-c3cccc(Br)c3)no2)(C(=O)O)CC1,4,-10,-0.2%,-1.0,-9,-0.8
CCCNS(=O)(=O)c1cccc2cccnc12,-2,-1,0.7%,-0.6,-11,-5.6
N=c1c(C(=O)NC2CCCCC2)cc2c(=O)n3ccccc3nc2n1Cc1ccccc1,5,4,22%,0.6,-19,-4.1
O=C(C1CCCN(S(=O)(=O)c2ccc(Br)s2)C1)N1CCN(c2ccccc2)CC1 (stereo unspecified),-10,-18,0.1%&-0.8%,0.7&3.5,-7,-2.9
O=C(NCCCN1CCc2ccccc2C1)Nc1ccc(Br)cc1,-9,5,-2.9%,0.4,-34,0.5
CCn1c(=O)cc(OCC(=O)Nc2cccnc2)c2ccccc21,-2,3,0.2%,1.2,-1,-1.8
Cn1c(SCC(=O)NCc2ccccc2)nnc1-c1ccc(NC(=O)CCc2ccccc2)cc1,-2,4,7.8%,-1.0,12,-1.1
N/C(=N\OC(=O)Nc1ccccc1)c1ccno1,-2,6,0.2%,0.1,1,-0.9
CC1=N/C(=C/c2ccco2)C(=O)O1,1,-8,-1.3%,-0.6,-9,-3.3
O=C(COC(=O)c1ccc2c(=O)n3c(nc2c1)CCC3)NC1CCS(=O)(=O)C1 (stereo unspecified),-8,-5,0.2%,-0.5,-16,4.2
COc1ccc(OC)c(CNS(=O)(=O)c2c(C)nc3scc(C)n3c2=O)c1,.,3,-1.8%,0.2,-6,4.3
CCN(C(=O)COC(=O)c1cc(S(=O)(=O)Nc2c(C)n(C)n(-c3ccccc3)c2=O)ccc1Cl)C1CCCCC1,-1,0,-0.4%,1.5,-2,4.1
Cc1cccc(C(=O)NCCC(=O)NCc2ccccc2F)c1,5,5,3.2%,3.1,1,7.2
CCOc1cc(C2C(C#N)=C(N)Oc3cc(N)ccc32)ccc1O (stereo unspecified),?,?,4.8%,-0.6,-4,-3.6
CC(C)C(c1nnnn1Cc1cccs1)N1CCN(c2ccccc2)CC1 (stereo unspecified),2,1,3.1%,1.2,-4,-5.0
Cn1cc(Br)c(-c2cccc(N3C(=O)CC(C)(C)CC3=O)c2)n1,13,8,-0.5%,-0.3,-6,-5.4

# Profiles, quoted from the list. Order of screens: CtBP-E1A inh | Six1-Eya2 blk | PINK1 modulator | TRPML1 agonist | D2 potentiator | D2 ag
# Cc1cccc(C(=O)NCCC(=O)NCc2ccccc2F)c1 reads 5 | 5 | 3.2% | 3.1 | 1 | 7.2
# CCOc1cc(C2C(C#N)=C(N)Oc3cc(N)ccc32)ccc1O (stereo unspecified) reads ? | ? | 4.8% | -0.6 | -4 | -3.6
# O=C(COC(=O)c1ccc2c(=O)n3c(nc2c1)CCC3)NC1CCS(=O)(=O)C1 (stereo unspecified) reads -8 | -5 | 0.2% | -0.5 | -16 | 4.2
# CC1=N/C(=C/c2ccco2)C(=O)O1 reads 1 | -8 | -1.3% | -0.6 | -9 | -3.3
# Cn1cc(Br)c(-c2cccc(N3C(=O)CC(C)(C)CC3=O)c2)n1 reads 13 | 8 | -0.5% | -0.3 | -6 | -5.4

# (listing goes on)
SMILES,CtBP-E1A inh,Six1-Eya2 blk,PINK1 modulator,TRPML1 agonist,D2 potentiator,D2 ag
COc1cc2c(cc1OC)/C(=C/C(=O)c1ccc(C)cc1)NCC2,-19,-16,0.7%,0.0,-8,2.9
CC(CC(=O)OCC(=O)Nc1ccc2[nH]c(=O)[nH]c2c1)c1ccccc1 (stereo unspecified),-12,-25,-3.1%,0.6,-8,1.5
O=C(NC1CC2CCCC(C1)N2C(=O)Nc1ccc(F)cc1)c1ccccc1 (stereo unspecified),19,1,-0.5%,-0.2,-4,1.0
C=CCOc1ccc(/C=C/C(=O)OCc2csc(CC(=O)Nc3ccccc3C)n2)cc1,-6,2,4.7%,4.8,12,3.6
COc1ccc(CNC(=O)CCn2c(C)csc2=O)cc1,5,5,0.8%,0.2,-5,-2.9
CCCCSc1ccc2nc(-c3ccc(C#N)cc3)cn2c1,12,16,0.2%,2.0,?,5.5
CCN1C(=O)C(CC(=O)Nc2ccc(Cl)cc2)N(NC(=O)c2ccncc2)C1=S (stereo unspecified),0,3,2.6%,-0.4,-13,-6.9
O=C(CSc1ccc(-c2ccc(F)cc2)nn1)N1CCN(c2ccccc2)CC1,-10,10,2.2%,-0.5,4,-1.2
COc1ccc(N(C(=O)Cn2nnc(-c3ccc(C)o3)n2)C(C(=O)NC2CCCC2)c2ccncc2)cc1 (stereo unspecified),22,7,5.0%,-0.1,2,-2.3
c1nnc(NCNc2nncs2)s1,5,0,0.1%,0.9,2,-4.0
CC(=O)Nc1ccc(S(=O)(=O)NCc2cc(=O)n(C)c(=O)n2C)cc1,.,8,-1.7%,0.5,-5,-2.2
S=c1[nH]nc(COc2ccccc2)n1-c1ccc(Cl)cc1,-17,-13,3.0%,-0.3,-1,5.4
O=C(c1cc(COc2ccc(F)cc2Cl)on1)N(Cc1ccncc1)CC1CCCO1 (stereo unspecified),1,2,-0.9%,-0.4,0,-4.6
COc1ccccc1CNC(=O)c1ccc2c(c1)OCO2,-8,-12,-1.7%,0.9,-4,1.5
O=[N+]([O-])c1ccc(C=NNC(=S)Nc2ccc(F)cc2)cc1,0,16,5.3%,0.6,1,-3.3
CC(=O)NC(NC(C)=O)c1ccc(Br)cc1,3,-5,-0.4%,0.7,-10,-3.0
COc1cccc(C#Cc2ccc3c(c2)O[C@@H](CN(C)C(=O)c2ccccn2)[C@@H](C)CN([C@H](C)CO)S3(=O)=O)c1,2,-9,-1.4%,-1.0,1,-0.8
CCOC(=O)C1(C)CCCN(C(=O)c2ccc(F)cc2Cl)C1 (stereo unspecified),-3,1,0.0%,-0.3,0,-1.5
O=C(Nc1ccc(Cl)cn1)Nc1cccs1,-6,1,0.0%,1.1,6,-0.6
Cn1cc(C(=O)C(F)(F)F)c2ccccc21,11,0,2.7%,-1.2,-2,-0.7
CS(=O)(=O)c1ccc(C(=O)OCC(=O)c2ccc(Cl)s2)cc1,8,5,0.3%,-0.3,-27,-10
CC(=O)c1ccc(NC(=O)/C(=C\c2ccco2)NC(=O)c2ccco2)cc1,4,0,0.1%,0.9,-10,12
COc1cccc(C2CC(c3ccc(F)cc3)Nc3nc(N)nn32)c1 (stereo unspecified),2,-9,-1.3%,0.2,1,-1.8
COc1ccc(-c2csc3nc(C)n(-n4cccc4)c(=O)c23)cc1,-4,0,0.3%,2.4,-4,-0.9
CCn1nc(C(=O)Nc2nc3ccc(C)cc3s2)c2ccccc2c1=O,4,2,3.9%[38.3 µM],-0.7,9,-1.1
CCOc1ncccc1C(=O)Nc1ccc(S(=O)(=O)Nc2nccs2)cc1,-6,-13,2.3%,1.2,2,2.1
Cc1ccc(CSc2ncnc3c2cnn3-c2ccccc2)cc1,9,12,4.2%,1.9,-14,1.0
CCOC(=O)N1CCN(C(=S)NC2CCCCC2)CC1,5,1,-0.3%,0.1,-27,1.0
CN1CCN(C(=O)/C(=C/c2ccccc2Cl)NC(=O)c2ccccc2)CC1,0,-23,0.6%,-0.8,-16,-12
CN(C)C(CNc1ncnc2sc3c(c12)CCCCC3)c1ccco1 (stereo unspecified),-13,-25,0.6%,1.4,-14,0.9
CC(NC(=O)COc1ccc(/C=N/NS(=O)(=O)c2ccccc2)cc1)c1ccccc1 (stereo unspecified),1,3,0.3%,-0.4,8,-1.3
CCCCCCCCN1C(=O)[C@H](CC(=O)NCCCOCCCC)C[C@@]2(C(=O)OCC)CCCC=C12,6,-5,-0.9%,-0.5,.,.

# Source: PubChem BioAssay
